# Beta cell apopt: inhibitors of cytokine-induced beta cell apoptosis, primary screen, luminescence | INS-1E cytokine-induced death, ATP luminescence, 48 h; percent of positive-control rescue, neutral wells zero | protection from apoptosis, % (no concentration beside the values) | actives 0.8% (n = 300,000) | AID 435005, 2010;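 active = all replicates at 75% or more, or half of them and the mean; inconclusive = half reach 75% but not the mean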;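 note: 0% = cytokine-treated negative control wells and 100% = positive control rescue; higher means more ATP so stronger rescue from cytokine killing; wells of about 40 µL received 100 nL stock; the first replicate is given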
# AF4-AF9 inh: inhibitors of AF4 peptide binding to AF9, primary screen, biochemical, AlphaScreen, biotin-AF4 peptide, FLAG-AF9, single point; Protein AF-9 (Homo sapiens), P42568; inhibition, % at 10 µM; actives 0.47% (n = 350,000); AID 651704, 2012;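 active = every replicate reaching a set inhibition limit, whatever the replicate mean, cut at about 25% in these data; inconclusive = mean inhibition reaches that limit but some replicates miss it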;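 note: 0% = plate neutral control median and 100% = total signal loss; the record names both 10 and 1 µM as test concentration; the first replicate is given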
# Target sequence (P42568 whole entry, looked up): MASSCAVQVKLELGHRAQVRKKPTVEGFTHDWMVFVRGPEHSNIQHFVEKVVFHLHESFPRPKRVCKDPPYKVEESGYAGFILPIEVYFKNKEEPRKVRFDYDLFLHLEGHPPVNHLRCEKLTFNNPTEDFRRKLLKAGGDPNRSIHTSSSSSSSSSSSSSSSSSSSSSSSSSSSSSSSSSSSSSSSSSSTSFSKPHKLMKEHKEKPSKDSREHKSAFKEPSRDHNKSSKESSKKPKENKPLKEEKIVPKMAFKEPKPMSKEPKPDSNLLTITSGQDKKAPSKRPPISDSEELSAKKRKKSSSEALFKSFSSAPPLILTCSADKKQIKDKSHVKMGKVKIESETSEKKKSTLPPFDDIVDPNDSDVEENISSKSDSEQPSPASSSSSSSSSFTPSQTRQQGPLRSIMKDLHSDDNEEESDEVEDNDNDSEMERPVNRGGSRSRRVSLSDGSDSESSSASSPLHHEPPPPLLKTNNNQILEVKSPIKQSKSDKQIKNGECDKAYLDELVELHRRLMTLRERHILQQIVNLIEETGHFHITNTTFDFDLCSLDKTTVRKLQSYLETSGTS
# RanGTP-Imp inh: inhibitors of RanGTP-importin-beta interaction, primary screen, biochemical, FRET, CFP-Ran, YFP-importin-beta, homogeneous; actives 1.1% (n = 300,000); Ran GTPase (GTP-bound) - importin-beta complex; inhibition, % (test concentration not listed); cell-free CFP-Ran/YFP-importin-beta FRET ratio;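 active = most replicates above 15%; inconclusive = exactly half above 15%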;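 note: 0% = DMSO wells and 100% = Ran loaded with GDP instead of GTP; wells of about 40 µL received 100 nL stock; the first replicate is given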
# T cruzi repl: inhibitors of intracellular T. cruzi growth, primary screen, luminescence, NIH3T3 host cells | T. cruzi beta-gal in NIH3T3, 90 h | inhibition, % (test concentration not listed) | actives 1.4% (n = 300,000) | AID 1885, 2009;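 active = mean inhibition across valid replicates above about 55%, limit read from the data; inconclusive = mean below that limit but half or more replicates reach it; inactive = mean below it, under half of replicates reach it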;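 note: signal also drops with host cell toxicity which is not excluded here; 0% = plate median of DMSO wells and 100% = zero luminescence signal; higher percent means less beta-gal luminescence so fewer parasites; stock transfer was 50 nL into about 50 µL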
# ALR inh: inhibitors of human ALR sulfhydryl oxidase, primary screen, biochemical, H2O2 detection, HRP-luminol luminescence, single point; FAD-linked sulfhydryl oxidase ALR (Homo sapiens), P55789; purified ALR, DTT oxidation; inhibition, % (concentration not given with the values); actives 3.8% (n = 290,000);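 active = mean and each replicate at 75% or more; inconclusive = only one of the two met; inactive = neither met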;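 note: stock transfer was 7.5 nL into about 7.5 µL; 0% = neutral wells and 100% = wells with inactivated enzyme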
# Target sequence (P55789 whole entry, looked up): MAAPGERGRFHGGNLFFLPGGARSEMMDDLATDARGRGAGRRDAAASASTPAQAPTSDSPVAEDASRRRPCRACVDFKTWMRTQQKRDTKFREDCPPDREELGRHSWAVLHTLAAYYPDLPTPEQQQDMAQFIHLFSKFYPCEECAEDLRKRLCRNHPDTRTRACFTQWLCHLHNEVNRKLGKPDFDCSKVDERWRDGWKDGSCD
# FGF22 binding: binders of human FGF22 protein, primary screen, FGF22 synaptogenesis inhibitor project, biophysical, thermal shift, single point; Fibroblast growth factor 22 (Homo sapiens), Q9HCT0; recombinant FGF22 thermal shift, SYPRO orange fluorescence; percent of sucrose octasulfate shift, DMSO zero; calls only at 9.99 µM; actives 1.5% (n = 340,000);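 active = melting point raised past a set limit in the mean and every replicate; inconclusive = no clear call; three in four hits are not shown here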
# Target sequence (Q9HCT0 whole entry, looked up): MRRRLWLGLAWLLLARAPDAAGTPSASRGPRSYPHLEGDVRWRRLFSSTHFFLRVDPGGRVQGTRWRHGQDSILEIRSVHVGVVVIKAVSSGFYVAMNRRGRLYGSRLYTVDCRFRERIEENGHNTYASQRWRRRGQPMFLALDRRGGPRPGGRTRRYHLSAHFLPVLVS
# rRNA inh HTS: reduced GFP signal of wild-type E. coli, primary screen, bacterial rRNA inhibitor project, GFP/RFP fluorescence, OD600, single point | GFP signal change (wild-type ribosome), % (no concentration beside the values) | actives 1.6% (n = 350,000) | E. coli WT GFP vs humanized-ribosome RFP mutants, 24 h; active compounds read low; DMSO median 0, no signal -100;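 active = significant combined selectivity score with lowered wild-type GFP, culture density cut under 30%, mutant RFP and density less affected; inactive = any of these conditions unmet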; note: one replicate is shown; some compounds called inactive have numbers as strong as hits
# Calb FLC: C. albicans growth inhibition with fluconazole, primary screen, CaCi-2 strain, Alamar Blue fluorescence; AID 1979, 2009; growth inhibition, % (concentration not given with the values); C. albicans CaCi-2 (fluconazole-resistant clinical isolate) + fluconazole, 48 h; actives 0.57% (n = 300,000);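 active = most replicates above 75%; inconclusive = exactly half above 75%; inactive = most below 75%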;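 note: all wells also contain fluconazole at 8 µg/ml as a sub-toxic cotreatment; 0% = median of DMSO wells and 100% = median of geldanamycin control wells; wells of about 8 µL received 7.5 nL stock; the first replicate is given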
# rRNA inh HTS OD600: also measured in rRNA inh HTS; calls as there; OD600 change, %; measured here: OD600 growth;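 optical density of the mix in the first replicate; 0 = DMSO median and -100 = no signal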
# rRNA inh HTS RFP: further read-out of rRNA inh HTS, marked with its call; RFP signal change, %; measured here: RFP humanized mutant strains;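 first replicate; 0 = DMSO median and -100 = no signal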
# Numbers without * were called inactive; i = inactive; ? = inconclusive; · = no result given.
SMILES,Beta cell apopt,AF4-AF9 inh,RanGTP-Imp inh,T cruzi repl,ALR inh,FGF22 binding,rRNA inh HTS,rRNA inh HTS OD600,rRNA inh HTS RFP,Calb FLC
COc1ccc(NC(=O)CNc2cccc(S(=O)(=O)N3CCCCCC3)c2)c([N+](=O)[O-])c1,-5,2.0,·,·,-3,i,·,·,·,·
CCOC(=O)CSc1[nH]c2cc(OC)ccc2c1[N+](=O)[O-],-1,-0.6,-1.9,0,·,i,8,-10,-0.5,4
O=C(N[C@@H]1C/C=C\C[C@H](CC(=O)N(CCO)Cc2ccccc2)C(=O)N[C@@H](Cc2c[nH]c3ccccc23)COC1=O)OCC1c2ccccc2-c2ccccc21,23,-0.3,·,·,0,i,-2,-3,5.0,·
CC(=O)C1=NOC(CNc2ncc(C(F)(F)F)cc2Cl)C1 (stereo not given),·,-0.4,2.0,-24,-2,i,15,12,-3.8,-16
CC(C)(C)c1ccc(C2=CC(c3ccccc3)n3ncnc3N2)cc1 (stereo not given),34,·,-11,-12,5,·,·,·,·,-19
Cn1cnnc1SCC(=O)c1ccc2c(c1)OCO2,1,·,1.6,1,43,·,·,·,·,-11
CCCN(CC1CC1)C(=O)CSc1ncnc2sc(C)c(C)c12,-4,·,?,21,-3,·,·,·,·,-4
Cc1ccc(C)c(NC(=O)CCc2c(C)nn(-c3ccc(N4CCCCC4)nn3)c2C)c1,·,-2.0,3.2,12,-5,i,23,18,0.5,1
CCOC(=O)C1CCN(C(=O)c2ccccc2NC(=O)c2ccc(Cl)cc2)CC1,2,1.5,2.2,-9,-8,i,5,0,0.0,0
CC1CCCCN1C(=O)Cn1nnc(-c2cccnc2)n1 (stereo not given),·,·,-10,7,-2,·,·,·,·,-12
C=CCN1C(=O)c2ccc(C(=O)N(CCOC)c3c(N)n(CCCC)c(=O)[nH]c3=O)cc2C1=O,-5,-1.4,4.4,0,-1,i,6,10,0.5,1
Cc1cc(C(F)F)n2nc(C(=O)Nc3sc4c(c3C#N)CCC(C)C4)nc2n1 (stereo not given),0,·,4.5,5,10,·,·,·,·,50
CN(C)S(=O)(=O)c1cccc(NC(=O)CN2C(=O)NC(Cc3ccccc3)C2=O)c1 (stereo not given),2,1.2,·,·,-1,i,-9,-6,-1.8,·
Cc1cccc(C(=O)OCC(=O)NCc2ccco2)c1,4,-1.3,·,·,-4,i,9,5,-2.1,·
CCN1CCN(C(=O)CCNC(=O)Cn2cnc3ccccc3c2=O)CC1,-9,-0.1,3.0,-8,·,i,6,0,1.6,5
O=S(=O)(c1ccc(Br)cc1)N1CCC(c2nc3ccccc3[nH]2)CC1,7,0.1,-0.3,7,0,i,1,1,2.4,-7
CCOC(=O)C1(CCCc2ccccc2)CCN(C(=O)CSC)CC1,-3,-0.8,1.7,-5,·,i,0,4,0.6,1
O=C(COc1ccccc1)Nc1cccc(-c2nc3ccccc3[nH]2)c1,2,·,7.0,-8,1,·,·,·,·,10
Cc1onc(-c2ccccc2)c1C(=O)Nc1cccc(C#N)c1,·,-7.2,1.3,13,1,i,-7,-2,0.5,-15
COc1cc(S(=O)(=O)N(Cc2cccnc2)Cc2cccc(OC)c2OC)ccc1-n1cnnn1,-10,1.7,-1.8,15,·,i,-6,-9,-0.8,0
CC(=O)Nc1cccc(NC(=O)CSc2nc(C)c(C)c(C)c2C#N)c1,1,·,0.8,-7,-4,·,·,·,·,-2
Cc1ccc(C)c(NC(=O)CSc2c(C)n[nH]c2C)c1,-6,-2.3,4.5,-3,96*,i,-55*,-27*,-14*,0
O=C(NNC(=O)c1ccccc1Br)c1ccc(Cl)cc1,-19,2.1,1.8,3,1,i,5,7,1.2,0
Nn1cnc2scc(-c3ccco3)c2c1=O,·,0.5,-0.8,-7,-6,i,4,2,2.3,-2
CCCC(=O)Nc1cccc(NC(=O)c2ccccc2Br)c1,3,·,-3.8,·,1,·,·,·,·,23
Cc1onc(-c2ccccc2Cl)c1C(=O)Nc1ccc(S(=O)(=O)NCC2CCCO2)cc1 (stereo not given),·,8.4,3.6,1,-9,i,2,0,-2.2,41
O=C(CCC(=O)OCC(=O)c1cccc([N+](=O)[O-])c1)Nc1ccccc1Cl,-8,·,?,-8,6,·,·,·,·,-11
c1cc(-c2nsc(-c3ccncc3)n2)ccn1,7,-4.8,-1.2,6,-7,·,-7,-6,2.5,-5
CCC(C)(C(=O)NC1CCCC1)N(C(=O)CNC(C)=O)c1ccc(C)cc1 (stereo not given),-5,·,1.0,4,-10,·,·,·,·,14
COc1ccccc1NC(=O)c1ccc(-c2ccc(Br)cc2)o1,3,·,0.0,8,-11,·,·,·,·,-9

# A run of entries of the results above, for reference:
SMILES,Beta cell apopt,AF4-AF9 inh,RanGTP-Imp inh,T cruzi repl,ALR inh,FGF22 binding,rRNA inh HTS,rRNA inh HTS OD600,rRNA inh HTS RFP,Calb FLC
CC(=O)Nc1cccc(NC(=O)CSc2nc(C)c(C)c(C)c2C#N)c1,1,·,0.8,-7,-4,·,·,·,·,-2
Cc1ccc(C)c(NC(=O)CSc2c(C)n[nH]c2C)c1,-6,-2.3,4.5,-3,96*,i,-55*,-27*,-14*,0
O=C(NNC(=O)c1ccccc1Br)c1ccc(Cl)cc1,-19,2.1,1.8,3,1,i,5,7,1.2,0
Nn1cnc2scc(-c3ccco3)c2c1=O,·,0.5,-0.8,-7,-6,i,4,2,2.3,-2
CCCC(=O)Nc1cccc(NC(=O)c2ccccc2Br)c1,3,·,-3.8,·,1,·,·,·,·,23
Cc1onc(-c2ccccc2Cl)c1C(=O)Nc1ccc(S(=O)(=O)NCC2CCCO2)cc1 (stereo not given),·,8.4,3.6,1,-9,i,2,0,-2.2,41
O=C(CCC(=O)OCC(=O)c1cccc([N+](=O)[O-])c1)Nc1ccccc1Cl,-8,·,?,-8,6,·,·,·,·,-11
c1cc(-c2nsc(-c3ccncc3)n2)ccn1,7,-4.8,-1.2,6,-7,·,-7,-6,2.5,-5
CCC(C)(C(=O)NC1CCCC1)N(C(=O)CNC(C)=O)c1ccc(C)cc1 (stereo not given),-5,·,1.0,4,-10,·,·,·,·,14
COc1ccccc1NC(=O)c1ccc(-c2ccc(Br)cc2)o1,3,·,0.0,8,-11,·,·,·,·,-9

# Next section:
SMILES,Beta cell apopt,AF4-AF9 inh,RanGTP-Imp inh,T cruzi repl,ALR inh,FGF22 binding,rRNA inh HTS,rRNA inh HTS OD600,rRNA inh HTS RFP,Calb FLC
COc1cc(NC(=O)c2cc3c(=O)n(C)c4ccccc4c3n2C)cc(OC)c1OC,0,-2.6,-3.4,-5,-7,i,4,7,-2.2,-4
CN(CC(=O)N1CC(=O)N(CCc2ccccc2)C(=O)C1)S(=O)(=O)c1cccc2nsnc12,-2,·,-1.2,-8,1,·,-4,-3,-5.5,3
COCCN(CC(=O)Nc1ccccc1C(F)(F)F)C(=O)c1ccc(-n2cccn2)cc1,-5,-17,·,·,0,i,3,-2,-2.2,·
O=C(CC1SCCNC1=O)Nc1cccc(C(F)(F)F)c1 (stereo not given),-1,·,-1.0,-20,-5,·,·,·,·,15
CCC(C)(C)n1nnnc1C(c1cc2cc3c(cc2[nH]c1=O)OCO3)N1CCCCC1 (stereo not given),-5,7.7,-7.6,0,-5,i,0,8,-2.9,4
S=C(NCCc1ccccc1)Nc1cnc2ccccc2c1,1,3.0,2.0,1,2,i,-34,-32,7.2,3
CCOC(=O)Cn1nc(-c2ccccc2)c2ccccc2c1=O,2,-2.7,-4.2,4,0,i,12,3,6.1,3
CC(C)C(=O)Nc1nnc(S(=O)(=O)N2CCCc3ccccc32)s1,-2,4.2,-1.0,0,·,i,-2,5,4.0,-3
Cc1nc(-c2nc(CC(=O)NNC(=O)c3ccc(Cl)cc3)cs2)cs1,6,-2.9,0.4,-17,-17,i,1,9,-0.1,-2
O=[N+]([O-])c1ccc(S(=O)(=O)Nc2ccc(-c3ccc(N4CCOCC4)nn3)cc2)cc1,0,-1.3,-2.1,29,·,·,-7,1,-2.9,11
COc1cc(NC(=O)[C@H]2CCCN2S(=O)(=O)c2cccc3cccnc23)cc(OC)c1OC,-5,2.7,·,·,-5,i,7,5,-6.9,·
CCOc1ccc(NC(=O)CSc2nnc(C)n2CCCOC)cc1,-7,·,-3.2,-4,-4,·,·,·,·,-11
C=CCNC(=O)C(C#N)c1nc2ccccc2nc1N1CCCCCC1 (stereo not given),3,·,74*,15,0,·,·,·,·,10
CC1(C)CC(=O)C=C(Nc2ccc(C(=O)O)c(O)c2)C1,-9,0.3,-2.0,-11,-4,i,8,13,2.0,-6
O=C(Nc1cnn(Cc2ccc(F)cc2)c1)c1cc(-c2ccco2)on1,26,8.2,5.9,-6,4,i,-2,7,2.9,-3
O=C(COC(=O)Cc1ccsc1)Nc1cccc(Cl)c1,-6,-18,·,·,-3,i,2,4,-0.3,·
COc1ccccc1-c1ccc2nnc(SCC(=O)N3CCCC3)n2n1,-8,-4.2,-1.9,-5,-5,i,9,14,0.8,-10
C/C(=N\NC(=O)c1ccccc1)c1c(C)[nH]n(-c2ccccc2)c1=O,14,5.3,-2.0,37,38,i,-36,-62,-11,0
Cc1ccccc1NC(=O)Cc1cn(C)c2ccccc12,-2,·,4.8,-10,-6,·,·,·,·,2
Cc1ccc(NC(=O)C2C(c3ccccc3)C2(Cl)Cl)c(C)c1 (stereo not given),-2,·,1.1,-6,-1,·,·,·,·,-6
COc1ccccc1CN1CCSCC1,-6,1.6,3.2,-13,·,i,10,5,-7.5,5
COc1cccc(NS(=O)(=O)c2ccc3c(c2)NC(=O)C(C)C(=O)N3)c1 (stereo not given),-1,-4.6,-0.6,1,-11,i,5,5,-4.7,2
Cc1cc(OCC(=O)c2ccc(F)cc2)ccc1N1C(=O)CCC1=O,·,·,3.5,0,-2,·,·,·,·,-9
Cc1cc(C)c(/C=C(\C#N)C(N)=S)c(C)c1,7,2.6,0.0,-12,3,i,1,0,4.7,-13
O=C(C1CCC(CNS(=O)(=O)c2ccccc2)CC1)N1CCCCC1 (stereo not given),-13,-3.0,2.5,-14,1,i,-7,-4,-9.0,-1
NS(=O)(=O)c1ccc(CCNC(=O)c2ccc(C(=O)c3ccccc3)cc2)cc1,-1,-7.5,4.6,4,2,i,2,-7,-2.2,-1

# Screening data from PubChem.

# An excerpt. The share of hits here may be higher or lower than overall.
